High-throughput results from PubChem.
Arbovirus anti: arbovirus infection inhibition; AID 1251; 200,000 compounds, 0.37% hits; inhibition, % at 10 µM; arbovirus infection cell-based antiviral screen;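 active = inhibition from about 30%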;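 note: bluetongue infection of BSR cells; cell survival read as ATP light after 72 h; 0% = infected wells without compound and 100% = uninfected wells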
Mtb betalactam: beta-lactam sensitization of Mtb H37Rv. inhibition, % at 25 µM. M. tuberculosis H37Rv growth with meropenem, percent inhibition; hits of this screen are not shown here. 330,000 compounds, 0.27% hits;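 active = about 74% or more and at least 40 points above the plate without the antibiotic, then above 30% in a dose series; inconclusive = first-round hits that could not be retested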;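 note: growth measured after seven days incubation then overnight dye step; 0% = bacteria only wells and 100% = bacteria with antibiotic; twin plates without the antibiotic show which effects depend on it; some results filed as inactive read as strong as hits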
RecA intein inh: inhibitors of M. tuberculosis RecA intein splicing. P9WHJ3. cell-free RecA intein splicing, fluorescence. inhibition, %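 (about 9 µM by stock and volumes)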. 290,000 compounds, 0.75% hits. AID 2221; in the data active = inhibition above about 30%; inconclusive = no clear call, values can overlap the other calls;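 note: 0% = vehicle wells and 100% = reference inhibitor control wells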
Target sequence (P9WHJ3 whole entry, looked up): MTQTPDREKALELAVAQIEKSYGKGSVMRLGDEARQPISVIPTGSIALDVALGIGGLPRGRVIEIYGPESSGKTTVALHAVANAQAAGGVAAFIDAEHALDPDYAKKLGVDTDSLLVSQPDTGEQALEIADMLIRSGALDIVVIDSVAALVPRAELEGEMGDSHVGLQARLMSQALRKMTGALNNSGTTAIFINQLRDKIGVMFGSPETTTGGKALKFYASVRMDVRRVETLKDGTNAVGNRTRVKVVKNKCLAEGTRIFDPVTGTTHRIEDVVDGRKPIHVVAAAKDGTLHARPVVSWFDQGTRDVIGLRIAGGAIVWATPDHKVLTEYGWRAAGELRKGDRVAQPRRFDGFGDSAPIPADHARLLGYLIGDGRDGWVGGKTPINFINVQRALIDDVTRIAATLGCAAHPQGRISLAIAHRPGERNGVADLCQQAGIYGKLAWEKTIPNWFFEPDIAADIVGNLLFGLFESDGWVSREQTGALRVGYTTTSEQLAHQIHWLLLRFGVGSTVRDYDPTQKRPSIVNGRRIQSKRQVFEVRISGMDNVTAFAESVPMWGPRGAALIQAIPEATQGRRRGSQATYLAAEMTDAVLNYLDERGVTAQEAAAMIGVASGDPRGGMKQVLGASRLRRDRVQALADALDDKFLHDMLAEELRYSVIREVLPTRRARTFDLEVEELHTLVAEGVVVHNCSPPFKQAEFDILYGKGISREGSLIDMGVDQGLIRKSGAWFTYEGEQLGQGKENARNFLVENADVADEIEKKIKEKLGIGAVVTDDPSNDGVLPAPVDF
YopH inh: inhibitors of Yersinia enterocolitica YopH tyrosine phosphatase; inhibition, %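 (about 10 µM by stock and volumes)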; fluorescence Ex485/Em525; 140,000 compounds, 0.16% hits;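 active = inhibition of 50% or more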;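 note: controls were vehicle for no effect and minimum signal wells for full effect; inactives centre near -20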
Mtb growth: M. tuberculosis H37Rv growth inhibitors, H37Rv strain (AID 1626) | M. tuberculosis H37Rv growth inhibition; higher % means a stronger effect | 220,000 compounds, 0.95% hits | inhibition, % at 10 µM; hits with a dose series show IC50 in µM;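 active = confirmed in a dose series; inconclusive = inhibition above 80% but not taken into the dose series; inactive = below 80% or under 30% at every dose of the series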;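 note: bacteria incubated seven days before Alamar blue readout; 0% = bacteria only wells and 100% = bacteria with antibiotic wells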
Arbovirus anti repeat: also measured in Arbovirus anti; calls as there; inhibition, %; measured here: 10K subset replicate screen; many hits read low in the repeat;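 first of two repeat runs on a subset; 0% = infected and 100% = uninfected wells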
An asterisk follows results filed as active; ? = inconclusive; . = not tested or not shown. The list is partial, so the mix of outcomes need not match the whole.

SMILES	Arbovirus anti	Mtb betalactam	RecA intein inh	YopH inh	Mtb growth	others
O=[N+]([O-])c1ccc(C(=S)N2CCN(c3ccc(F)cc3)CC2)cc1	6	-7	4.8	.	11%
CN(C)c1cccc(C(=O)OCC(=O)Nc2ccccc2-c2ccccc2)c1	1	1	-0.8	-54	2%
COCC(=O)N1CCCC(N(C)CCc2ccc(OC)c(OC)c2)C1 (configuration not stated)	.	-1	1.0	.	.
CC(=O)n1cc(/C=N/NC(N)=S)c2ccccc21	-1	97	-1.8	.	51%
C=CCn1c(-c2cccs2)nc2ccccc21	14	18	.	-28	7%
CC1CCCCC1NC(=O)c1cccc(S(=O)(=O)N2CCN(C)CC2)c1 (configuration not stated)	.	-10	-2.6	.	.
C[C@@]1([C@@H](NP(=O)(c2ccccc2)c2ccccc2)c2ccccc2)C[C@H]1CCO	-8	-5	3.1	-23	-7%
CCOC(=O)CN1C(=O)c2ccccc2Sc2ncccc21	.	9	0.7	.	.
O=C1NC[C@H](Cc2ccc(O)cc2)N(CC2CCCCC2)C1=O	.	8	-4.3	.	1%
COc1ccc(-n2c(Cc3cccn3C)nnc2SCC(=O)Nc2cc(Cl)ccc2OC)cc1	-6	7	4.1	-18	0%
CCc1cc(C(=O)Nc2ccc(S(=O)(=O)NC3=NCCCCC3)cc2)sc1C	.	2	-1.1	.	.
O=C1Nc2ccc(C(F)(F)F)cc2N2CCCC12 (configuration not stated)	.	41	-56	.	.
COc1cc(C2NC(=O)NC(C)=C2C(=O)NCc2ccccc2)c(Cl)cc1O (configuration not stated)	0	-5	-0.8	-28	3%
CCOC(=O)OC(C)OC1=C(C(=O)Nc2ccccn2)N(C)S(=O)(=O)c2ccccc21 (configuration not stated)	.	-8	3.6	.	10%
S=c1[nH]c2ccccc2c2ccccc12	.	-6	-0.4	.	.
O=C(Nc1ccc2c(c1)OCO2)c1sc2cc(Cl)ccc2c1Cl	-6	4	-5.5	-17	-8%
O=C(CN1CCN(c2ccc(O)cc2)CC1)Nc1cc(S(=O)(=O)N2CCCCC2)ccc1Cl	-17	0	-2.9	.	5%
CCOc1ccccc1NC(=O)CNS(=O)(=O)c1ccc2nc(C)sc2c1	-8	5	-3.2	.	-2%
CC(C(=O)OCC(=O)Nc1ccc2c(c1)OCO2)N1C(=O)c2ccccc2C1=O (configuration not stated)	6	95	0.5	-17	-3%
CCOC(=O)c1[nH]c2c(c1C)C(=O)CC(c1ccco1)C2 (configuration not stated)	-13	1	1.3	-29	-5%
O=C(CCCNC(=O)c1ccc(Cl)cc1)Nc1ccc(S(=O)(=O)Nc2ncccn2)cc1	.	-7	-2.0	.	-13%
CCC(CC)c1nnc(NC(=O)c2ccc(N3CCCC3=O)cc2)s1	6	7	-1.4	13	-5%
CCOc1ccc(C(=O)Nc2cccc(NC(=O)c3cccs3)c2)cc1[N+](=O)[O-]	-20	.	4.2	-17	19%
Cc1ccccc1Nc1c(-c2cccnc2)nc2ccc(Br)cn12	-13	11	0.8	.	2%
CCN1CCN(C(=O)c2ccc3c(=O)n(Cc4ccccc4OC)c(=S)[nH]c3c2)CC1	-6	1	2.3	-6	0%

Part of the list above in order of SMILES length, high to low:
SMILES	Arbovirus anti	Mtb betalactam	RecA intein inh	YopH inh	Mtb growth	others
CCc1cc(C(=O)Nc2ccc(S(=O)(=O)NC3=NCCCCC3)cc2)sc1C	.	2	-1.1	.	.
CN(C)c1cccc(C(=O)OCC(=O)Nc2ccccc2-c2ccccc2)c1	1	1	-0.8	-54	2%
CCOc1ccccc1NC(=O)CNS(=O)(=O)c1ccc2nc(C)sc2c1	-8	5	-3.2	.	-2%
O=C1Nc2ccc(C(F)(F)F)cc2N2CCCC12 (configuration not stated)	.	41	-56	.	.

Remaining list, next part:
SMILES	Arbovirus anti	Mtb betalactam	RecA intein inh	YopH inh	Mtb growth	others
NS(=O)(=O)c1ccc(NC(=O)COc2ncnc3c2cnn3-c2ccccc2)cc1	-1	-16	-3.0	.	-1%
c1ccc(CCc2nn3c(-c4ccncc4)nnc3s2)cc1	24	3	-0.9	39	-1%
CN1CCN(c2ccc(CNS(=O)(=O)Cc3ccc(Cl)cc3)cc2)CC1	.	-9	1.9	.	8%
CCOC(=O)c1oc2ccccc2c1NC(=O)c1cccc(OC)c1	-1	58	4.6	-32	-1%
CCCCCn1c(=O)c(C(=O)Nc2ccccc2)c(O)c2ccccc21	.	7	-0.1	.	.
CC1CCC(NC(=O)COC(=O)C2CC3CCCC(C2)C3=O)CC1 (configuration not stated)	.	2	2.2	.	.
COc1ccc(N/C(C)=C2/C(=O)C(=O)N(CCO)C2c2ccc([N+](=O)[O-])cc2)cc1 (configuration not stated)	-4	86	-0.7	1	56%
CCOC(=O)c1ccccc1NC(=O)c1cccnc1	3	24	0.0	-9	8%	Arbovirus anti repeat=-7
O=C(O)c1cccc(COc2ccccc2Cl)c1	4	-11	-5.0	.	-1%
CC(=O)N1c2ccc(S(=O)(=O)NCCC(=O)N(C)Cc3ccccc3)cc2CC1C (configuration not stated)	.	-13	0.3	.	.
N/C(COc1ncn(-c2ccccc2)n1)=N\S(=O)(=O)c1ccc(Cl)cc1Cl	-4	-3	0.0	.	0%
O=C(c1ccc(Br)o1)N(Cc1ccccc1)c1ccccn1	9	12	4.0	-19	-9%	Arbovirus anti repeat=3
O=C(C1=C[C@@H](C2CCCCC2)C[C@@H](OCCCCO)O1)N1CCOCC1	-2	2	1.0	.	-2%
Cc1occc1-c1nnc(SCC(=O)N2CCCCC2)o1	2	1	-1.4	.	-2%
N#Cc1ccccc1Sc1ccccc1N	0	24	-0.9	-44	1%
CC1=C(C)/C(=N\OS(=O)(=O)c2ccccc2)C=CC1=O	-36	100	41*	-18	8%
O=C1C(=Nc2cccc(Cl)c2)CC(c2ccc(Cl)cc2)N1c1cccc(Cl)c1 (configuration not stated)	.	7	0.9	.	-1%
Cc1ccc(NC(=O)CCN2C(=O)c3ccccc3S2(=O)=O)cc1F	.	0	0.2	.	.
COc1ccc(C(C)=O)cc1CSc1nc2ccccc2o1	4	-10	1.3	5	-2%
COc1ccc(CC(=O)NNC(=O)[C@@H]2CCCC[C@@H]2C(=O)O)cc1	.	3	-3.1	.	.
CCOc1ccc(N2CC(O)=C(c3nc4ccccc4c(=O)[nH]3)C2=N)cc1	-10	-1	7.7	.	3%
COc1cccc(C(=O)N(c2ccc(C)cc2)C2C=CS(=O)(=O)C2)c1 (configuration not stated)	5	-9	-1.1	.	2%
Cc1ccc(NC(=O)/C=C/c2cccs2)c([N+](=O)[O-])c1	-12	1	-0.3	-13	-6%
Cc1ccc(NC(=O)CCNS(=O)(=O)c2cccc3nonc23)cc1	4	5	0.4	-13	-1%	Arbovirus anti repeat=4
CCC(C)(C(=O)NC1CCCC1)N(Cc1cccs1)C(=O)c1ccccn1 (configuration not stated)	11	0	0.1	.	4%

Of the compounds above, 2 contain bromine.
SMILES	Arbovirus anti	Mtb betalactam	RecA intein inh	YopH inh	Mtb growth	others
Cc1ccccc1Nc1c(-c2cccnc2)nc2ccc(Br)cn12	-13	11	0.8	.	2%
O=C(c1ccc(Br)o1)N(Cc1ccccc1)c1ccccn1	9	12	4.0	-19	-9%	Arbovirus anti repeat=3

The listing continues:
SMILES	Arbovirus anti	Mtb betalactam	RecA intein inh	YopH inh	Mtb growth	others
CCOC(=O)c1c(NC(C)=O)sc2c(O)c(CN3CCN(CC)CC3)ccc12	12	3	-11	8	-1%
Fc1ccc(-c2ccc(-c3nn4c(-c5ccco5)nnc4s3)o2)cc1	0	-2	-2.1	2	-6%	Arbovirus anti repeat=-5
O=C(Nc1ccccc1F)c1ccc(C(=O)c2ccccc2)cc1	.	77	0.1	.	.
O=C(Nc1ccc(F)cc1)C1CCCN1S(=O)(=O)c1cccc2nsnc12 (configuration not stated)	.	-2	-2.2	.	4%
O=Cc1cn(Cc2ccc(F)cc2)c2ccccc12	-13	3	0.0	.	-4%
CCCc1c(C(=O)OCC)sc(N)c1C#N	2	-2	-1.2	.	7%
Cc1cc(C)n2nc(C(=O)OCC(=O)Nc3ccc4c(c3)OC(F)(F)O4)nc2n1	-4	-7	1.0	-3	-9%
COc1ccc2[nH]c(=O)c(CNc3ccc(C)cc3C)cc2c1	.	-6	-0.3	.	-2%
COc1ccc(C(=O)NC(=S)NCc2cccnc2)cc1[N+](=O)[O-]	1	-1	6.1	-28	-2%
Cc1ccc2cc(/C=N/Nc3nc4ccccc4[nH]3)c(Cl)nc2c1	-9	.	-1.9	19	77%
Cc1cc(-c2csc3nc[nH]c(=S)c23)cc(C)c1C	-15	82	4.0	.	?
Cc1ccc(C(=O)O/N=C(\N)c2ccccn2)c(C)c1	.	2	0.3	.	.
CC(=O)Nc1cc(C)nn1-c1nc(C)cc(C)n1	-4	-2	-3.0	.	3%
COC(=O)CCCc1nc2ccccc2s1	-3	-1	-5.7	-42	0%
O=C1c2ccccc2C(O)N1Cc1cccs1 (configuration not stated)	0	6	1.8	.	-5%
CCOc1ccc(CCNC(=O)Cn2nc(C)c3c(C)n(-c4ccccc4)nc3c2=O)cc1	.	-3	-2.0	.	.
Cc1[nH]nc2c1C(c1ccc(-c3ccc(Cl)cc3)o1)C(C#N)=C(N)O2 (configuration not stated)	-28	95	68*	-9	0.75µM*
COc1ccccc1Nc1nc(-c2sc(NC(=O)CC(C)C)nc2C)cs1	-15	42	-1.0	-39	-1%
CC(C)C(=O)N1CCC2(CC1)Oc1ccc(F)cc1C(=O)C21CC(c2ccccc2)=NO1 (configuration not stated)	.	39	5.4	.	5%
Cc1cccc2c1N1C(=O)c3c(C(=O)O)cccc3C1CC2C (configuration not stated)	6	0	.	-23	5%
Cc1cc(C)c2ccc(/C=N/O)nc2c1O	.	99	-4.8	.	24%
CSc1ccc(/C=N/N2CCN(c3ccccc3)CC2)cc1	-1	-5	0.5	.	6%
CC(=O)Nc1ccc(S(=O)(=O)N2CCC(C(N)=O)(N3CCCCC3)CC2)cc1	.	5	-5.4	.	.
CCCn1nnnc1NC(=O)CSc1ccc(Cl)cc1	-21	6	0.7	-56	0%
CCCCNC(=O)CCn1nc(-c2ccc(Cl)cc2)c2ccccc2c1=O	.	-1	-1.2	.	-3%
SMILES	Arbovirus anti	Mtb betalactam	RecA intein inh	YopH inh	Mtb growth	others
Cc1ccc(O)c(/C=N/NC(=O)Cc2ccc(Cl)cc2)c1	.	7	-2.6	.	.
COc1cc(/C=C/C(=O)OCC(=O)Nc2ccccc2Cl)cc(OC)c1OC	0	7	-1.2	.	-4%
COCCCN1C(=O)c2ccc(C(=O)NCCc3ccccc3)cc2C1=O	.	2	-3.4	.	.
CC(Oc1ccc(Cl)cc1Cl)c1nc(-c2ccc(NC(=O)c3ccccn3)cc2)no1 (configuration not stated)	-23	-1	0.8	-18	-4%
CN(C[C@H](Cc1ccccc1)N(C[C@H](c1ccccc1)N(CCc1ccccc1)N=O)N=O)N=O	-4	-10	0.7	.	-3%
CCN1CCN(c2nc(N(C)c3ccccc3)nc(N)c2[N+](=O)[O-])CC1	.	-1	1.3	.	-3%
CC(C)c1ccc(NC(=O)N2CCCC2C(=O)Nc2ccc(-n3cnnn3)cc2)cc1 (configuration not stated)	8	-10	5.3	.	-3%
OC1(c2ccc(OC(F)F)cc2)CSC(=Nc2cccnc2)N1C1CC1 (configuration not stated)	7	-7	.	-33	0%
COc1ccc(Cl)cc1C(=O)O/N=C(\N)c1ccncc1	.	0	1.8	.	9%
Cc1noc(-c2ccc(Cl)cc2)c1C(=O)O/N=C(\N)c1ccc(C(C)(C)C)cc1	.	-2	5.5	.	7%
CC(=O)Nc1ccc(NS(=O)(=O)c2ccc(OC(C)C(=O)N3CCOCC3)cc2)cc1 (configuration not stated)	.	0	-0.6	.	.
COc1ccccc1N1CCN(C(=O)C2CC2)CC1	.	6	-0.4	.	.
CC(C)c1ccc(OCC(=O)NCc2ccccc2)cc1	.	0	0.0	.	.
COc1cccc(OC)c1OCCOc1ccccc1OC(C)C	-1	-1	1.0	-4	1%
C#Cc1cccc(-n2nnc(C(C)=O)c2C)c1	.	0	-0.1	.	-4%
COC(=O)c1ccc(CO/N=C/c2cccc([N+](=O)[O-])c2)cc1	.	1	-9.9	.	.
O=C(COc1ccccc1)Nc1c(C(=O)N2CCC(N3CCCCC3)CC2)oc2ccccc12	.	-18	0.7	.	.
Cc1cccc(C(=O)Nc2cccc3cccnc23)c1	.	74	3.2	.	.
OC(COc1cccc(OCC(O)CN2CCCC2)c1)CN1CCCC1 (configuration not stated)	-1	6	-2.1	-6	10%
CCS(=O)(=O)N1CCN(c2ccc(S(=O)(=O)N3CCOCC3)cc2)CC1	1	2	-1.7	.	.
CCCCn1nc(C(=O)N2CCN(S(=O)(=O)c3ccccc3)CC2)c2ccccc2c1=O	.	-2	3.8	.	.
O=Cc1cn(Cc2c(F)cccc2Cl)c2ccccc12	4	-4	0.4	.	-8%
